# GCN5L2 inh: inhibitors of human GCN5L2 histone acetyltransferase | AID 504327 | Potency, µM (doses to about 58.9 µM), for the others: at the highest dose activity change, negative = inhibition, actives largely listed as inhibitors | 0.21% of 390,000 active | GCN5L2 HAT assay, ThioGlo1 CoA-SH fluorescence | Q92830; active means well fitted inhibition curve with a large enough effect; inconclusive means small, poorly fitted or top-dose-only effect, or another doubt; inactive means no such curve, though single readings can be large or run the other way
# Target sequence (Q92830 whole entry, looked up): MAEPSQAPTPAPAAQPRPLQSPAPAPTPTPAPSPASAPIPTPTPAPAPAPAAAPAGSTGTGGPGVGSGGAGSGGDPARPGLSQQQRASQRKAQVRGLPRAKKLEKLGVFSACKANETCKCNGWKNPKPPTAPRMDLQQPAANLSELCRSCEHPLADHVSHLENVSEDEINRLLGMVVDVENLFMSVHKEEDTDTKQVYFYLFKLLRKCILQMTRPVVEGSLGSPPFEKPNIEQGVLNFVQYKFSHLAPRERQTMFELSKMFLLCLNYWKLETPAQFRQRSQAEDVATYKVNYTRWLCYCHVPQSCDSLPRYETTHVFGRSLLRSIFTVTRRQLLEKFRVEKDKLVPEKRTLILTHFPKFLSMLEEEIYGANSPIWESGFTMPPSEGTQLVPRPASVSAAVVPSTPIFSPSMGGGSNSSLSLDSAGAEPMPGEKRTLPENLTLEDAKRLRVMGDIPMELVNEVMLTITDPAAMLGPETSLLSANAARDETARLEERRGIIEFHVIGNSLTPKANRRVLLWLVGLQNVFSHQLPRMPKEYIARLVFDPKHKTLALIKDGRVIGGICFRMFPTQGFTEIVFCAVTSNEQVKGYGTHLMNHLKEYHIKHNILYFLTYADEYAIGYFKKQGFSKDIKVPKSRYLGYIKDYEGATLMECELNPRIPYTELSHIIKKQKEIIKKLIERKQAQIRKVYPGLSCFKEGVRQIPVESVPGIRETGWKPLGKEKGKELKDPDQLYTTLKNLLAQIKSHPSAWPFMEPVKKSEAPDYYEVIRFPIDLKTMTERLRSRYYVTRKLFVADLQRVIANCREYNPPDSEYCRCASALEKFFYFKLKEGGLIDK
#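 GCN5L2 (20 nM) in 50mM HEPES pH 7.5, 0.1mM EDTA, 0.01% Tween-20 preincubated 15 min with compounds at room temperature. Reaction started with H3(1-25) 75uM, acetyl-CoA 70uM, ThioGlo1 50uM; CoA-thiol fluorescence (Ex340/Em540) read at 0 and 20 min.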
# Active calls of the source: *; ? = inconclusive; & = joins results of further samples; [ ] = another dose, or the depositor's remark. On the % scale 0 is the no-effect control and ±100 the full control effect; potency means the concentration at half of the fitted maximal effect. These rows are one share of the data; most or all hits stand in other tables.
SMILES,GCN5L2 inh
COCc1cc(C)n(CC(=O)Nc2c(C)cccc2C)c(=O)c1C#N,8%
O=C1CN(C(=O)/C=C/c2ccc(Cl)cc2)c2ccccc2N1,-7%
COc1ccccc1N1CCN(C(=O)Cn2c(=O)n3nc(-c4ccc(C)cc4)nc3c3ccccc32)CC1,-1%
N#Cc1nc(Cc2ccccc2)oc1NCc1ccccc1,-10%
COCCCn1cnnc1SCc1nc2sc(C(C)=O)c(C)c2c(=O)[nH]1,-4%
O=S(=O)(NCC1CCCO1)c1ccc(NS(=O)(=O)c2ccc(F)cc2)cc1 (centres undefined),-3%
COc1ccc(CNC(=O)c2ccc(Br)o2)cc1,4%[88.6 µM]
COc1ccccc1N(CC(=O)NCC1CCCO1)C(=O)CCC(=O)Nc1nccs1 (centres undefined),-7%
CSc1ncccc1C(=O)OCC(=O)NCCC1=CCCCC1,0%
CCOc1ccc(N2CCc3c(C)nc(SC)nc32)cc1,-1%
COc1ccc(S(=O)(=O)N(C)C[C@@H]2Oc3ccc(NC(=O)Nc4c(C)noc4C)cc3C(=O)N([C@H](C)CO)C[C@@H]2C)cc1,-1%
Cc1nnc(SCc2ccc(C(=O)Nc3cc(Cl)ccc3C)cc2)s1,-1%
COCC(C)n1c(SCC(=O)c2cc(C)n(C)c2C)nc2ccccc2c1=O (centres undefined),-18%
O=C(Cc1ccc2c(c1)OCCO2)Nc1cccc(S(=O)(=O)N2CCOCC2)c1,-2%
CCOC(=O)c1ccc(NC(=O)Nc2cccc(C)n2)cc1,-7%
COc1cccc2[nH]c3c(N4CCCCC4)ncnc3c12,-16%
CC12CC3(C)CC(C)(C1)CC(C(=O)Nc1nn[nH]n1)(C2)C3,-4%
S=C(NCc1ccco1)N1CCN(c2ccccn2)CC1,-3%
Cc1ccc2cc(COC(=O)C3CCCO3)c(=O)[nH]c2c1 (centres undefined),1%
COc1ccccc1CNc1ccc(-c2nc(C(C)C)no2)cc1[N+](=O)[O-],-4%
CCC(C)(C(=O)NC1CCCC1)N(Cc1cccs1)C(=O)Cc1cccs1 (centres undefined),-5%
C/C(=N\NC(=O)C1COc2ccccc2O1)c1ccc(C)o1 (centres undefined),1%
[O-][n+]1c2c(c3c4non(O)c4ccc31)CCCC2,0%
Cc1nn(C)cc1S(=O)(=O)N1CCN(Cc2cccc(Cl)c2)CC1,-7%
N#Cc1cccc(NC(=O)CSc2nnc(-c3n[nH]c4ccccc34)o2)c1,-13%
O=C(O)c1cnn(-c2nc(-c3ccc(F)cc3)cs2)c1C(F)(F)F,-11%
CCN(CC(=O)Nc1cccc(C(C)=O)c1)S(=O)(=O)c1ccc(C)cc1,-4%
O=C(COC(=O)c1ccccn1)NNC(=O)c1ccc(Br)cc1,1%
Cc1cc(C)c(NC(=O)CNC(=O)COC(=O)CNC(=O)c2ccc(Cl)cc2Cl)c(C)c1,1%
Cc1ccc(NC(=O)c2cnn3c(C(F)F)cc(-c4ccccc4)nc23)cc1F,-6%
COC(=O)c1ccc(NC(=O)CNC(=O)c2sc3ccccc3c2Cl)cc1,-10%
Cc1ccc(S(=O)(=O)N2CCOCC2)cc1C(=O)Nc1ccc2c(c1)OCCO2,0%
Cc1cc(C)cc(NC(=O)C2CCC(CNS(=O)(=O)c3ccc4c(c3)C(C)(C)C(=O)N4C)CC2)c1 (centres undefined),-13%
O=C(NNC(=O)[C@H]1CC=CC[C@H]1C(=O)O)c1ccc(Cl)cc1Cl,?
O=C(c1nc2nc(-c3ccccc3)cc(C(F)(F)F)n2n1)N1CCCCC1,-2%
COc1ccc(/C=N/NC(=S)NC2CCS(=O)(=O)C2)cc1 (centres undefined),-15%
COC(=O)C1CCN(CC(N)=O)CC1,-3%
COc1ccc(CNC(=O)c2cc(C3CC3)nc3c2c(C)nn3-c2cccc(Cl)c2C)cc1,-19%
C/C(CC(=O)Nc1ccccc1[N+](=O)[O-])=N\NC(=O)COc1ccccc1C,3%
CC(OC(=O)Cn1cnc2c1c(=O)n(C)c(=O)n2C)C(=O)Nc1ccc(Cl)cc1 (centres undefined),-4%

# Continued; it opens with the 2 that closed the last part.
SMILES,GCN5L2 inh
C/C(CC(=O)Nc1ccccc1[N+](=O)[O-])=N\NC(=O)COc1ccccc1C,3%
CC(OC(=O)Cn1cnc2c1c(=O)n(C)c(=O)n2C)C(=O)Nc1ccc(Cl)cc1 (centres undefined),-4%
O=C(CSc1oc(-c2ccc(F)cc2)nc1S(=O)(=O)c1ccc(Br)cc1)NC1CCCCC1,-1%
CCOc1ccccc1N(C)S(=O)(=O)c1ccc2c(c1)N(C(C)=O)CCO2,4%
CCn1cc(S(=O)(=O)c2cc(C)cc(C)c2)c(=O)c2cc(F)c(N3CCN(c4ccccc4)CC3)cc21,-15%
O=C(N/N=C/c1cccc([N+](=O)[O-])c1)c1cc(-c2ccccc2)nc2ccccc12,-1%
Cc1csc(SCC(=O)Nc2cc(S(=O)(=O)N3CCCC3)ccc2Cl)n1,-10%
CCOC(=O)C(O)(CCC(O)(C(=O)OCC)C(=O)OCC)C(=O)OCC,1%
COc1ccccc1CNC(=O)COC(=O)c1cc(C)oc1C,-4%
Cc1ccc(CN2C3CCCC2CC(NC(=O)c2ccc(C)cc2)C3)cc1 (centres undefined),-7%
COC(=O)CCC(C)N1CCC(Oc2ccc(C(=O)N3CCCC3)cc2)CC1 (centres undefined),-27%
CCc1nccn1CCC(=O)NC1CC(C)(C)Cc2c1cnn2-c1cccc(F)c1 (centres undefined),-2%
NC(=O)c1c(Nc2nc3c(F)cccc3s2)sc2c1CCCC2,5%
COc1cc(C(=O)NCCc2ccc(S(=O)(=O)N3CCCC3)cc2)cc(OC)c1OC,3%
Cc1cccc(NC(=O)CCCCCN2C(=O)c3ccccc3C2=O)n1,1%
OCCN1CCN(C(c2ccccc2Cl)c2sc3nc(-c4ccco4)nn3c2O)CC1 (centres undefined),-1%
CCCn1c2ccccc2c2cnn(CC(=O)NCCc3ccc(OCC)c(OCC)c3)c(=O)c21,-7%
COC(=O)C(C)n1nc(C)n(-c2ccc(C)cc2)c1=O (centres undefined),3%
Cc1cc(C)cc(NC(=O)NCC2CCN(Cc3cc(C)ccc3C)CC2)c1,1%&-3%
CC(C)CC(=O)Nc1nnc(S(=O)(=O)N2CCCCCC2)s1,-8%&-10%
CCn1c2c(c3ccc(OC)cc31)CCCC2=O,-23%
Cc1ccccc1NC(=O)CCNS(=O)(=O)c1ccc2c(c1)CCC(=O)N2,-3%

# Reprinted at random: 2 compounds from above, in no set order.
SMILES,GCN5L2 inh
Cc1cccc(NC(=O)CCCCCN2C(=O)c3ccccc3C2=O)n1,1%
CC(C)CC(=O)Nc1nnc(S(=O)(=O)N2CCCCCC2)s1,-8%&-10%

# Next structures
SMILES,GCN5L2 inh
COc1ccccc1C(=O)N(Cc1ccc(C)o1)C1CCS(=O)(=O)C1 (centres undefined),1%
CN(C)S(=O)(=O)c1ccc(N2CCCC2)c(C(=O)NNC(=O)COc2ccc(Cl)cc2)c1,0%
Cc1ccc(C(=O)OCC(=O)N(CCc2ccccc2)Cc2ccccc2)cc1S(=O)(=O)N1CCOCC1,-8%
CC(=O)COC(=O)c1cc(-c2ccc(C)cc2)nc2ccccc12,?
N=c1c(C(=O)NCC2CCCO2)cc2c(=O)n3ccccc3nc2n1Cc1ccco1 (centres undefined),-5%
Cc1cccc(N(CC(=O)N2CCCC2)S(=O)(=O)c2ccccc2)c1,-5%
CCOc1cc(/C=N/NC(=O)c2ccc(-c3csc(Nc4ccc(C)cc4)n3)cc2)ccc1OCC(=O)O,-24%
CC(C)Cc1nnc(NC(=O)CSc2ncn[nH]2)s1,1%
CCC(CC)NC(=O)Nc1ccccc1C,3%
CC1CCN(c2nc3c(-c4cccc(Br)c4)nnn3c3ccccc23)CC1,-5%

# Rewritten field by field: three of the compounds above.
mol: CC(C)Cc1nnc(NC(=O)CSc2ncn[nH]2)s1
  GCN5L2 inh = 1%

mol: COc1ccccc1C(=O)N(Cc1ccc(C)o1)C1CCS(=O)(=O)C1 (centres undefined)
  GCN5L2 inh = 1%

mol: Cc1ccc(C(=O)OCC(=O)N(CCc2ccccc2)Cc2ccccc2)cc1S(=O)(=O)N1CCOCC1
  GCN5L2 inh = -8%

# Continuation.
SMILES,GCN5L2 inh
CC1=[N+](C)N(c2ccccc2)C(=O)C1N=Cc1ccc(Cl)cc1 (centres undefined),3%
CC/C(=N/Nc1ccccc1C)c1cnnc(SC)n1,-16%
S=C(Nc1cccc(Cl)c1)N1CCN(Cc2ccccc2)CC1,-1%
Cc1ccc(C(=O)O)cc1S(=O)(=O)N1CCOCC1,-1%
CCCCc1cc2c(c(NC(=O)CC)n1)c(=O)oc1ccccc12,-4%
COc1cc2c(=O)n(Cc3ccccc3)c(=O)n(CC(=O)NCC3CCCO3)c2cc1OC (centres undefined),-17%
Cc1nn(-c2ccccc2)c(C)c1/C=N/NC(=O)c1cc(-c2ccccc2)n[nH]1,-4%
CC(=O)Nc1ccc(S(=O)(=O)Nc2cccc(-c3ccc(N4CCC(C)CC4)nn3)c2)cc1,-7%
COCCNC(=S)N/N=C(\C)c1ccccc1OC,-1%
Brc1ccccc1-c1nnc(-c2cccnc2)o1,0%
Cc1ccc(S(=O)(=O)Nc2c(C)nc3nc(C)[nH]n3c2=O)c(C)c1,-3%&-7%
O=C(Nc1ccc(Cl)c(Cl)c1)Nn1cnnc1,?
CCC(C)(C)NC(=O)CN(Cc1ccc2c(c1)OCO2)C(=O)CCC(=O)Nc1ccccn1,-1%
O=C(COc1ccccc1)N1CCN=C1SCc1cccnc1,-8%
CCCn1c(SCC(=O)Nc2ccc(OCC)cc2)nnc1C(C)C,-8%
O=C(NC1CC1)c1ccc(-c2nc3ccccc3s2)s1,-2%
O=C(CCCCC(=O)NC1CCCC1)NC1CCCC1,-2%
CCN(CC)c1ccc(/C=C(/C#N)C(=O)NCc2ccccc2)o1,-1%
O=C(COc1ccc(Br)cc1)Nc1ccncc1,-2%
COc1ccc(CCN2CC(C(=O)N(C)CC(=O)Nc3ccc(Cl)c(C(F)(F)F)c3)CC2=O)cc1OC (centres undefined),1%

# Molecules above that contain a cyano group (four):
SMILES,GCN5L2 inh
COCc1cc(C)n(CC(=O)Nc2c(C)cccc2C)c(=O)c1C#N,8%
N#Cc1nc(Cc2ccccc2)oc1NCc1ccccc1,-10%
N#Cc1cccc(NC(=O)CSc2nnc(-c3n[nH]c4ccccc34)o2)c1,-13%
CCN(CC)c1ccc(/C=C(/C#N)C(=O)NCc2ccccc2)o1,-1%

# The list goes on:
SMILES,GCN5L2 inh
COC(=O)c1ccc(NC(=O)NC2CCCCC2)cc1,0%
CCCCNCC(=O)Nc1sc(C)c(C)c1C(=O)OCC,4%
O=C1CC(=O)Nc2cc(S(=O)(=O)N3CCN(c4ccc([N+](=O)[O-])cc4)CC3)ccc2N1,-14%
CCN(CC1CCCO1)C(=O)CCc1nnc(CCc2ccc(OC)cc2)o1 (centres undefined),-3%
N#Cc1ccc(C(=O)Nc2nc(SCc3ccc(Cl)cc3)n[nH]2)cc1,2%
Oc1ccc(C[C@@H]2CNCCN2CCCCC2CCCCC2)cc1,-1%
Cc1cc2c(c(CO)c1CCO)C(=O)[C@@H](C)[C@@H]2O,-2%
Cc1ccccc1C(=O)c1c[nH]c(C(=O)NCCc2ccccn2)c1,-9%
Cc1ccc(Cl)cc1N1CCN(C(=O)CNC(=O)c2ccc(Br)o2)CC1,-15%
CC(=O)c1c(C)n(CC(=O)NCc2ccco2)c2ccccc12,-4%
N#Cc1ccsc1NC(=O)COC(=O)c1ccc2ccccc2c1,-2%
CCOC(=O)N1CCN(C(=O)c2cccc(-n3c(=S)[nH]c4cc(Cl)ccc4c3=O)c2)CC1,-3%
O=C(O)C1CCCCC1C(=O)Nc1nccs1 (centres undefined),1%
COC(=O)c1cc(C)nc2c1c(=O)nc(SCc1c(C)cc(C)cc1C)n2C1CC1,-14%
O=C(NNC(=O)c1ccc(-c2ccccc2)cc1)Nc1ccccc1F,-1%
CC(NC(=O)COC(=O)C1CCN(c2ccc(C(F)(F)F)cn2)CC1)c1ccc(F)cc1 (centres undefined),-8%
COc1ccc(CN2CCN(S(=O)(=O)c3ccc(F)cc3)CC2)cc1OC,-1%
Cc1sc2ncn(CC(=O)NCCCC(=O)N3CCN(c4ccccc4)CC3)c(=O)c2c1C,-3%
CCOc1ccccc1C(=O)NCCC(=O)O,-5%
COc1ccc(C2(C(N)=O)CCCCC2)cc1OC,-6%
O=C1C(=O)N(Cc2cccnc2)C(c2ccccn2)/C1=C(/O)c1ccccc1 (centres undefined),-7%
CCOC(=O)Cc1csc(SCC(=O)NC2CCS(=O)(=O)C2)n1 (centres undefined),1%
Nc1cc(=O)n(Cc2ccccc2)c(=O)n1-c1ccc(Cl)cc1,-10%
Cc1ccsc1C(=O)OCC(=O)NC1CCCC1,-1%
O=S(=O)(NCc1ccccc1)c1ccccc1NCCc1ccccc1,-6%
CCOc1ccc(S(=O)(=O)Nc2ccn(C)n2)cc1,-6%
C=CCn1c(-c2cccc3ccccc23)n[nH]c1=S,-5%
O=C(COC(=O)CCCc1nc2ccccc2s1)Nc1ncc(Cl)cc1Cl,-13%
COc1ccccc1NC(=O)c1ccc2nc(-c3ccccc3)c(-c3ccccc3)nc2c1,0%
Cc1ccccc1Nc1c(-c2c[nH]c3ccccc23)nc2ccc(Cl)cn12,-6%
CC(NC(=O)c1ccc2c(c1)C(=O)N(Cc1cccnc1)C2=O)c1ccccc1 (centres undefined),-11%
CCOc1ccccc1CN1CCCC(C(=O)Nc2cccc(-n3cccn3)c2)C1 (centres undefined),-3%

# Screening results deposited in PubChem BioAssay by National Center for Advancing Translational Sciences (NCATS).
